GIV-Gai inh – inhibitors of GIV GBA-motif binding to rat Galpha-i3 | P08753 | Galpha-i3/FITC-GIV peptide fluorescence polarization, 90 min; active compounds read low; scaled: aluminum fluoride 0%, vehicle 100% | percent of control (FP), % (no concentration beside the values) | 210,000 compounds, 0.42% hits;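 active means replicate mean at 85% of control or lower, very high polarization wells dropped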;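 further: wells of about 15 µL received 100 nL stock; the first replicate is given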
Target sequence (P08753 whole entry, looked up): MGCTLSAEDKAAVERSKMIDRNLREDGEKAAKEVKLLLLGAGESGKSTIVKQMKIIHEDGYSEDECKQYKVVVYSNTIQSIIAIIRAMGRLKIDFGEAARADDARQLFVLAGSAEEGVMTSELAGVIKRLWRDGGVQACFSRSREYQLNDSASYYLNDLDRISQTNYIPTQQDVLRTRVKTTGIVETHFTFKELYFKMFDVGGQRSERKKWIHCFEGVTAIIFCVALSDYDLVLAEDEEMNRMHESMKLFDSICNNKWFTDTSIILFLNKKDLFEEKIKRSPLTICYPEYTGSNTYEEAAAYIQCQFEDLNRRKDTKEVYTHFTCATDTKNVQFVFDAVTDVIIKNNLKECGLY
Sa growth inh – blocks Staphylococcus aureus growth. 170,000 compounds, 0.53% hits. relative growth, % (test concentration not listed). S. aureus RN4220 growth, OD600, 20 h, 42 °C; active compounds read low. AID 720641;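 active means growth at 42 °C up to 50% and 20 or more points under that at 30 °C, or under 10% at both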;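 further: 300 nL library stock went into each well; scaled to the means of positive and negative controls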
HCMV UL50-53 inh – cytomegalovirus nuclear egress complex inhibition | HTRF UL50-UL53 interaction, normalized percent inhibition | inhibition, % (concentration not given with the values) | 190,000 compounds, 0.15% hits;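 active means both replicates at 50% or more, plus weaker picks with an unusually low signal ratio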;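 further: stock transfer was 100 nL into about 20 µL; 0% = negative control wells and 100% = wells with untagged competitor protein; inactives centre near -12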
Sa growth inh second temp – also measured in Sa growth inh; calls as there; relative growth, %; measured here: growth at 30 °C;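 optical density after 20 h as mean of two plates; 100% = untreated growth and lower means inhibition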
The depositor's hits bear a star; . = not tested or not shown; & = joins results of further samples. The order is random; overall some 0.8% were active at least once.

Compound	GIV-Gai inh	Sa growth inh	Sa growth inh second temp	HCMV UL50-53 inh
CN(C(=O)C1CC1)c1ccccc1C(=O)O	.	89	89	-9
COC(=O)c1cc(OC(=O)c2ccc(OC)c(OC)c2)n(C)n1	99	90	80	-25
CCOc1ccccc1CNC(=O)c1cnc2sc(N(CC)CC)nn2c1=O	99	81	93	.
CC(C)(C)c1cc2nc(C(F)(F)F)cc(SCCO)n2n1	97	89	81	-14
Clc1ccc(N2CCCCC2)nn1	107	85	83	-46
Cc1ccc(-c2ccc(=O)n(CC(=O)NCc3ccco3)n2)cc1	105	109	80	-27
CC(C)(Oc1ccc(Cl)cc1)C(=O)OCC(=O)N1CCc2ccccc21	.	108	90	-2
COc1ccc(CNC(=O)CSC(=S)N2CCCC2)cc1	.	108	96	-25
O=c1ccc(-c2ccco2)nn1Cc1ccc(Cl)c(Cl)c1	102	18	21	-23
CC(C)C(NS(=O)(=O)c1ccccc1)C(=O)N1CCCC1 (stereo unspecified)	107	112	98	-34
CC(=O)N1N=C(c2ccccc2)CC1c1ccccc1 (stereo unspecified)	103	114	84	-34
Cc1cc2c(cc1S(=O)(=O)NC1CCCC(C)C1C)OCC(=O)N2 (stereo unspecified)	105	107	85	.
CC(=O)N1CCCSc2ccc(S(=O)(=O)N3CCOc4ccccc43)cc21	111	.	.	15
O=C(CCCC(=O)OC1CCCC1)OC1CCCC1	.	121	92	-12
Cc1cc(C)c(NC(=O)CCC(=O)N2Cc3ccccc3Oc3ncccc32)c(C)c1	101	84	94	.
O=C(COc1ccccc1F)Nc1ccc2nc(SCC(=O)N3CCOCC3)sc2c1	105	107	71	5
CCOc1cccc(-c2cc(C(=O)Nc3ccc4c(c3)OCO4)c3ccccc3n2)c1	108	.	.	-8
CCCn1nnc(NCc2ccc(-c3cc(Cl)ccc3Cl)o2)n1	102	.	.	9
COCC(C)NC(N)=S (stereo unspecified)	.	106	96	9
O=C(CCCN1C(=O)C(c2ccccc2)Oc2cccnc21)NCc1cccnc1 (stereo unspecified)	102	.	.	-182
CC(C)NC(=O)CCCCn1c(=O)c2ccccc2n(CC(=O)Nc2ccc(F)c(Cl)c2)c1=O	107	.	.	-22
CC(C)OCCCNC(=O)c1ccc2c(=O)n(CCc3ccccc3)c(=O)[nH]c2c1	107	104	98	-6
CCN(CC(=O)Nc1cc(C)on1)Cc1nc2ccccc2c(=O)[nH]1	.	93	95	-17
CC1CN(c2nc3ccccc3nc2SCC(=O)Nc2ccccc2)CC(C)O1 (stereo unspecified)	105	133	83	.
CN=C1SC(CC(=O)Nc2ccc(OC)c(OC)c2)C(=O)N1/N=C(\C)c1ccc(OCC#N)cc1 (stereo unspecified)	.	63	71	-32

Look-ups from the entries so far:
Value of `Cc1cc2c(cc1S(=O)(=O)NC1CCCC(C)C1C)OCC(=O)N2` (stereo unspecified) in Sa growth inh second temp: 85
Value of `O=C(COc1ccccc1F)Nc1ccc2nc(SCC(=O)N3CCOCC3)sc2c1` in HCMV UL50-53 inh: 5
Value of `COCC(C)NC(N)=S` (stereo unspecified) in HCMV UL50-53 inh: 9

(further entries)
Compound	GIV-Gai inh	Sa growth inh	Sa growth inh second temp	HCMV UL50-53 inh
Cc1nn(Cc2ccccc2)c2sc(C(=O)NCc3cccnc3)cc12	.	84	76	-24
COC(=O)CNC(=O)c1cccnc1Sc1cc(OC)ccc1OC	99	96	89	-22
COC(=O)c1cc2oc3ccccc3c2n1Cc1nc(-c2ccc(Cl)cc2)oc1C	100	111	90	8
COc1ccccc1-c1oc2cc(Cl)ccc2c(=O)c1O	108	114	107	1
COC(=O)c1ccccc1NC(=O)c1ccc(-c2nc(COc3ccccc3)c(C)o2)cc1	109&110	77	83	1
COCc1nnc(NC(=O)c2cccc(NC(=O)C(C)C)c2)s1	108	86	90	4
O=C(O)C1C2C=CC(C2)C1C(=O)NCc1ccccc1F (stereo unspecified)	101	95	100	4
CCc1ccccc1NC(=O)N1CCC2(CC1)Oc1ccccc1C(=O)N2Cc1ccccc1F	103	107	94	-8
N#Cc1ccccc1NC(=O)CSC1=NCCS1	112	106	88	4
N#CC1=C(N)NC(=S)C(C(N)=O)C1c1ccccc1 (stereo unspecified)	.	45	28	-10
Cc1ccccc1CNC(=O)c1ccc2[nH]c(C)c(C)c2c1	112	122	100	.
Cc1nc(C(F)(F)F)ccc1C(=O)Oc1ccccc1N1CCCCC1	102	90	84	-22
O=C(CN1CCCC1)N1CCN(C(=O)c2ccccc2)C1	100	92	79	-4
CNC(=O)NC(=O)CSc1ncc(C(F)(F)F)cc1Cl	.	68	91	-32
Cc1cc(S(=O)(=O)NCCc2csc3nc(-c4cccc(F)c4)nn23)ccc1F	98	.	.	-26
Cc1nc2ccc(-c3nc4ccc(NC(=O)c5cccs5)cc4[nH]3)cc2[nH]1	108	90	103	.
Cc1cc(C)n(-c2nc(N3CCOCC3)nc(N3CCOCC3)n2)n1	107	.	.	-14
Cc1ccc2c(c1)c1c(c(=O)n(-c3ccccc3C)c(=O)n1Cc1ccccc1F)n2C	110	115	93	.
O=C(O)CCOc1ccc(F)cc1F	98	101	89	-6
CCn1c(=O)cc(OCC(=O)NC2CCCC2)c2ccccc21	101	21	14	.
C=CCSc1nc2c(c(=O)n(C)c(=O)n2C)n1Cc1cccc(C)c1	96	89	90	-8
CCN(CC)S(=O)(=O)c1ccc(/C=C/C(=O)OCC(=O)Nc2cccnc2Cl)cc1	.	80	99	-29
CC1(C)CC(=O)C2=C(C1)N(CC1CCCO1)C(=O)C2(NC(=O)c1ccc(C(C)(C)C)cc1)C(F)(F)F (stereo unspecified)	97	.	.	-3
O=C(/C=C/c1ccco1)OC1CCOC1=O (stereo unspecified)	.	91	90	-59
O=C(NCCCN1CCC(Cc2ccccc2)CC1)Nc1ccc(F)cc1	114	.	.	7

Reformatted with each value named: 4 of the compounds above.
O=C(O)C1C2C=CC(C2)C1C(=O)NCc1ccccc1F (stereo unspecified)
  GIV-Gai inh: 101 | Sa growth inh: 95 | Sa growth inh second temp: 100 | HCMV UL50-53 inh: 4

CCc1ccccc1NC(=O)N1CCC2(CC1)Oc1ccccc1C(=O)N2Cc1ccccc1F
  GIV-Gai inh: 103 | Sa growth inh: 107 | Sa growth inh second temp: 94 | HCMV UL50-53 inh: -8

N#Cc1ccccc1NC(=O)CSC1=NCCS1
  GIV-Gai inh: 112 | Sa growth inh: 106 | Sa growth inh second temp: 88 | HCMV UL50-53 inh: 4

N#CC1=C(N)NC(=S)C(C(N)=O)C1c1ccccc1 (stereo unspecified)
  GIV-Gai inh: . | Sa growth inh: 45 | Sa growth inh second temp: 28 | HCMV UL50-53 inh: -10

Carrying on.
Compound	GIV-Gai inh	Sa growth inh	Sa growth inh second temp	HCMV UL50-53 inh
CCCOc1ccc2nc(NC(=O)c3sc(COc4cccc(C)c4)nc3C)sc2c1	111	.	.	-10
COc1ccc(-c2nsc(NC(=O)c3oc4ccc(Cl)cc4c3C)n2)cc1	98	104	92	-18
O=C(CSc1nccn2nc(-c3ccccc3)cc12)Nc1ccc2c(c1)OCO2	107	.	.	6
Cc1cc(C)nc(NC(c2ccco2)c2ccc3cccnc3c2O)n1 (stereo unspecified)	103	.	.	8
COC(=O)c1ccc2occ(C(=O)c3ccc(F)cc3)c2c1	109	102	92	-3
Nc1nnc(SCC(O)CO)s1 (stereo unspecified)	96	99	85	-17
COc1ccc(CN2COc3ccc4c(-c5ccccc5)cc(=O)oc4c3C2)cc1	101	103	93	-80
COC(=O)C1CCN(C(=O)COc2ccccc2)CC1	99	104	91	-10
CCOC(=O)c1cc(-c2ccc(F)cc2)n(CC(=O)N2CCc3ccccc3C2)c1C	102	98	91	.
CCOC(=O)C1=NN(C(=O)CCc2ccccc2)C(O)(c2ccc(Cl)cc2)C1 (stereo unspecified)	106	.	.	11
O=C(/C=c1/[nH]c(=O)/c(=C/c2ccccc2C(F)(F)F)s1)c1ccco1	.	81	44	-10
O=C(NC(=S)Nc1cccc(O)c1)c1ccccc1	.	78	56	-7
Cc1cc(N2CC(C)CC(C)C2)n2c(nc3ccccc32)c1C#N (stereo unspecified)	106	92	95	-14
NC(=O)CN1CCCCCC1=O	104	93	86	.
COc1ccccc1-c1c(C#N)c(C)nc(C)c1C#N	104	.	.	-24
COc1ccccc1OCC(=O)NCCO	102	106	100	-1
Cc1ccccc1-n1c(-c2ccccc2)nc2c(cnn2-c2ccccc2)c1=O	97	.	.	15
Cc1noc(C)c1/C=N/NC(=S)Nc1ccc(SC(F)F)cc1	.	105	88	-30
O=C(CCNc1ccccc1)c1cccs1	109	76	82	-1
c1ccc2c(CSc3nnc(-c4ccc5c(c4)OCO5)o3)cccc2c1	.	100	96	-3
CC(Sc1ccccc1)C(=O)O (stereo unspecified)	.	85	90	-6
Cc1cc(=O)n2c([nH]c3ccccc32)c1C(=O)O	95	111	48	-34
CN(C)c1cccc(C(=O)OCC(=O)N(C)c2ccccc2)c1	.	100	100	22
CCOc1ccc(C(=O)Nc2ccc(-n3nncc3-c3ccc(OC)cc3)cc2)cc1	105	121	91	.
O=C(NCCCN1CCN(c2ccc(F)cc2)CC1)C1COc2ccccc2C1 (stereo unspecified)	96	87	85	.

(list continues)
Order of results – GIV-Gai inh, Sa growth inh, Sa growth inh second temp, HCMV UL50-53 inh
- COc1ccc(NC(=O)C(C)N2Cc3ccccc3C2=O)cc1OC (stereo unspecified)
  102, 85, 89, .
- COc1ccc2cccc(OC)c2n1
  97, 110, 90, -8
- CCOC(=O)c1cnn(-c2nc(-n3ncc(C(=O)OCC)c3N)c3c4c(sc3n2)COC(C)(C)C4)c1N
  107, 118, 96, -13
- O=C1c2ccccc2C(=O)N1Cc1nc2ccccc2c(=O)n1CCCn1ccnc1
  106, 101, 91, -9
- CN(C(=O)Cn1ncc2c(=O)oc3ccccc3c21)c1ccccc1
  99, 86, 76, .
- O=C1Nc2ccccc2SC1C(C(=O)O)c1ccccc1 (stereo unspecified)
  98, 110, 105, -8
- CC1(c2ccccc2)NC(=O)N(CC(O)c2ccccc2)C1=O (stereo unspecified)
  ., 126, 98, 9
- O=S(=O)(c1ccccc1)c1ccc(NC2CCCCCC2)nn1
  98, ., ., -19
- COc1cc2c(cc1OC)C1=C(C#N)CCC(=O)N1CC2
  93, 103, 79, .
- Cc1ccc(C)c2[nH]c(=O)c(C3NC(=O)c4ccccc4N3)cc12 (stereo unspecified)
  96, 85, 84, -11
- O=S(=O)(c1ccc(-n2cnnn2)cc1)N1CCN(c2cccc(C(F)(F)F)c2)CC1
  92, 79, 91, 2
- CCN1CCN(Cc2c(O)ccc3ccccc23)CC1
  ., 98, 98, -30
- COc1ccc(NC(=O)CSc2nc3ccccc3nc2Cc2ccc(C)cc2)cc1Cl
  104, 101, 93, .
- CC(C)CC(NC(=O)C1CCC(C)CC1)C(=O)OCC(=O)c1ccc(Cl)cc1 (stereo unspecified)
  104, 93, 106, 11
- CC(=O)Nc1nc2ccccc2n1Cc1ccccc1Cl
  102, ., ., 3
- O=C(NCC(c1cccnc1)c1c[nH]c2ccccc12)Nc1ccc(Br)cc1 (stereo unspecified)
  101, ., ., -15
- Cc1cc(C(=O)CN(C)C2CCN(C)CC2)c(C)n1-c1c(C)n(C)n(-c2ccccc2)c1=O
  ., 76, 84, -4
- COc1ccc(NCc2cccn2-c2nnc(N3CCN(c4ccccc4)CC3)s2)cc1OC
  105, ., ., -15
- Cc1cc(C)cc(NC(=O)Nc2ccc3nc(N4CCN(C)CC4)cc(C)c3c2)c1
  107, 113, 96, .
- O=C(NC(=O)c1csnn1)Nc1ccc(F)c(Cl)c1
  102, 97, 83, -28

(continued)
Order of results – GIV-Gai inh, Sa growth inh, Sa growth inh second temp, HCMV UL50-53 inh
- CCC(C)NC(=O)Cn1c(=O)/c(=C\c2ccc(F)cc2)s/c1=C\C(=O)c1ccco1 (stereo unspecified)
  ., 83, 87, -49
- Cc1ccc(N(Cc2nc3nc(C)cc(=O)n3[nH]2)C(=O)CCc2ccccc2)cc1
  109, ., ., -38
- Cc1ccccc1NC(=O)c1c(C)oc2ccc(O)c(CN3CCCCCC3)c12
  105, 96, 89, 18
- CCN(c1ccc(Cl)cc1)S(=O)(=O)c1nnc(NC(=O)c2ccccc2C)s1
  106, 99, 75, -2
- COc1ccccc1CNC(=O)CSc1nnc(C)c2c(C)n(-c3ccccc3)nc12
  107, 88, 94, .
- NCC1CC2C=CC1C2 (stereo unspecified)
  99, 102, 91, -23
- Cc1sc2c(c1C)C(O)=C(C(=O)Nc1ccc(Cl)cc1)S(=O)(=O)N2C
  98, 101, 54, -25
- CCN(CC)S(=O)(=O)c1cccc(C(=O)Nc2nnc(Cc3cccc(C)c3)s2)c1
  103, ., ., -7
- COc1ccc(OC)c(CCNC(=O)C(C)n2c(C)c3cnn(-c4ccccc4)c(=O)c3c2C)c1 (stereo unspecified)
  105, 104, 86, -14
- C=CCn1cnc2c(NCc3ccccc3)ncnc21
  100, 78, 62, .
- C/C(=N\OCC(=O)Nc1ccc2c(c1)OCO2)c1cc2ccccc2o1
  ., 65, 82, -23
- Nc1ncc2c(n1)CC(c1ccco1)CC2=O (stereo unspecified)
  102, 110, 79, -34
- CCOC(=O)c1cc(C)n(CC2CCC(C(=O)Nc3ccc(C)cc3)CC2)c1C (stereo unspecified)
  104, 129, 92, .
- COC(=O)CSc1nc2sc3c(c2c(=O)n1C1CCCCC1)CC(C)(C)OC3
  105, ., ., -18
- CCOC(=O)c1c(/N=C/C2C(=O)NC(=O)NC2=O)sc2c1CCCCC2
  101, 91, 82, -22

Assay outcomes deposited in PubChem BioAssay by ICCB-Longwood Screening Facility, Harvard Medical School.
